# From PubChem BioAssay
# SmPrx2 inh: Schistosoma mansoni Prx2 inhibition; S. mansoni Prx2 activity coupled to TGR/GSH (TGR is thioredoxin glutathione reductase), NADPH fluorescence loss, qHTS; some inactives read as strong as hits; Potency, µM; 65,000 compounds, 0.07% hits; AID 448; active means full or partial inhibition curve with a strong effect at the top dose; inconclusive means weaker partial or single-point curve; inactive means no accepted curve; further: series up to 57 µM; many of its hits are not listed in these tables
#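 Enzyme mix: 100 uM NADPH, 25 nM TGR, 700 uM GSH, 50 nM Prx2 in 100 mM phosphate pH 7.4, 10 mM EDTA, 0.01% Tween-20. 15 min RT with compound; NADPH/GSH added, H2O2 starts reaction; NADPH fluorescence read 8 min.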
# LT uptake inh: inhibitors of anthrax lethal toxin internalization | Cells, anthrax lethal toxin internalization, FRET ratio (460/530) | Potency, µM (titrated, usually from 40 µM), inactives show at the top dose activity change, negative = inhibition, usual class: inhibitors | 70,000 compounds, 0.67% hits | AID 912; active = well fitted falling ratio curve with the 530 nm signal flat; inconclusive = other ratio curves, or a change in one channel alone; inactive = flat curves in the ratio and both channels; the % refers to the ratio; further: on the % scale 0 is the no-effect control and ±100 the full control effect; nearly all actives have a fitted effect of over 50% in size; tested in ME-180 cells; beta-lactamase reporter
# Active calls of the source: *; ? = inconclusive; nt = no result given; & = joins results of further samples; [ ] = dose if it differs, or a comment. Potency means the concentration at half of the fitted maximal effect. Not all compounds are listed, so the mix of outcomes need not match the whole.
molecule,LT uptake inh,SmPrx2 inh
Cc1ccc(S(=O)(=O)Nc2ccc(S(=O)(=O)Nc3ncccn3)cc2)cc1,1.2%,>57
CC(=O)c1c(C)nc(C)nc1NC(=O)Cc1ccccc1,2.3%,>57
O=C1c2oc3ccc(Cl)cc3c(=O)c2C(c2ccccn2)N1CCCN1CCOCC1 (stereo not given),5.6%,>57
O=C(Nc1ccc(Cl)cc1F)c1ccc(COc2c(F)c(F)c(F)c(F)c2F)o1,?,>57
O=C(COc1ccccc1Cl)N1CCN(c2ncccn2)CC1,-19.9%,>57
COc1ccc(CNC(=O)CCS(=O)(=O)c2cccc3nonc23)cc1,6.6%,>57
Cn1c(SCC(=O)Nc2ccccc2-c2ccccc2)nnc1-c1ccco1,7.0%,>57
Brc1ccc(C2Nc3cccc4cccc(c34)N2)o1,?,nt
O=C(Cl)c1ccccc1[N+](=O)[O-],-11.9%,nt
CCCc1[nH]nc2c1C1(CCOC1C)C(C#N)=C(N)O2 (stereo not given),?,>57
CCCN(CCC)CCc1c[nH]c2ccc(C(N)=O)cc12,-4.9%,>57
CC(C)(C)n1nnnc1C(c1cccc(C#N)c1)N1CCN2CCCC2C1 (stereo not given),-1.3%,>57

# Quoted at random: four records from the list, in no set order.
molecule,LT uptake inh,SmPrx2 inh
CC(=O)c1c(C)nc(C)nc1NC(=O)Cc1ccccc1,2.3%,>57
Cc1ccc(S(=O)(=O)Nc2ccc(S(=O)(=O)Nc3ncccn3)cc2)cc1,1.2%,>57
Brc1ccc(C2Nc3cccc4cccc(c34)N2)o1,?,nt
CCCN(CCC)CCc1c[nH]c2ccc(C(N)=O)cc12,-4.9%,>57

# (more compounds)
molecule,LT uptake inh,SmPrx2 inh
O=C(Cc1ccsc1-c1ccccc1)NO,26.0%,>57
COc1ccc(S(=O)(=O)N(CCCN2CCCC2=O)Cc2cc3c(C)cc(C)cc3[nH]c2=O)cc1,3.6%,20.4*
COc1ccc(NC(=O)CN(c2ccc(C)cc2)S(=O)(=O)c2c(C)nn(C)c2C)cc1OC,-16.0%,>57
CN(C)c1ccc(-c2nc(NCCN3CCOCC3)c3ccccc3n2)cc1,?,>57
CC(C)Sc1nc2c(c(=O)n1-c1ccc(F)cc1)SCC2,-8.2%,>57
Cc1cccc(-n2c(Cc3cc(=O)[nH]c(=O)[nH]3)nnc2SCC(=O)N2CCCCC2)c1,-11.2%,>57
CC(=O)OC1CCC(OC(C)=O)c2c1n([O-])c(C)c(C)[n+]2=O (stereo not given),18.0%,>57
Cc1cccn2c(=O)c3c(nc12)N1CCC(Cc2ccccc2)CC1C1(C3)C(=O)N(C)C(=O)N(C)C1=O (stereo not given),?,>57
CCOC(=O)N1CCC(NC(=O)C2CCN(C(=O)N3CC(C)Oc4ccc(C)cc43)CC2)CC1 (stereo not given),nt,>57
COCCOC(=O)c1c(C)oc2ccc(OC(=O)c3c(OC)cccc3OC)cc12,-27.6%,>57
CCN1C(=S)SC(=O)C1=C1C=C(C)OC(C)=C1,-17.1%,>57
CCN1CCN(C(=O)c2cc3c(s2)-c2ccccc2S(=O)(=O)C3)CC1,-13.7%,>57

# Part of the list above, with values under each structure.
# Order of values: LT uptake inh	SmPrx2 inh
- Cc1cccn2c(=O)c3c(nc12)N1CCC(Cc2ccccc2)CC1C1(C3)C(=O)N(C)C(=O)N(C)C1=O (stereo not given)
  ?	>57
- O=C(Cl)c1ccccc1[N+](=O)[O-]
  -11.9%	nt
- CC(=O)OC1CCC(OC(C)=O)c2c1n([O-])c(C)c(C)[n+]2=O (stereo not given)
  18.0%	>57

# Additional structures:
molecule,LT uptake inh,SmPrx2 inh
Cc1nn(C(=O)CCCC(=O)n2nc(C)c(Cl)c2C)c(C)c1Cl,10.2%,>57
COc1ccc(-c2cnnc(CCCn3ccnc3-c3ccccc3)n2)cc1,2.9%[1.6 µM],nt
O=C(NCc1cccc2ccccc12)[C@H]1C[C@@H]1[C@H](NP(=O)(c1ccccc1)c1ccccc1)c1ccccc1,-33.1%,>57
CCOc1ccc(C2=Nn3c(nnc3-c3ccccc3)SC2)cc1Cl,-10.9%,>57
O=C1NC2C(NC(=O)N2C2CCCCC2)N1C1CCCCC1 (stereo not given),-3.7%,>57
COC(=O)C1=C(C)NC2=C(C(=O)CC(c3cccs3)C2)C1c1ccsc1 (stereo not given),-9.5%,>57
Cc1ccc(S(=O)(=O)c2nc(S(C)(=O)=O)sc2NCC2CCCO2)cc1 (stereo not given),3.3%,nt
Cc1cc(NC(=O)CN2C(=O)C3CC=CCC3C2=O)no1 (stereo not given),-2.0%,>57
Cc1ccc(C(=O)NCCNC(=O)CN2CCOCC2)cc1,11.1%,>57
O=C(NCc1cccc(Cl)c1)c1ccco1,0.0%,>57
CC(C)COC(=O)C(N)C(C(=O)OCC(C)C)c1ccccc1 (stereo not given),-3.2%,>57
O=C(CN(CCc1ccccc1)C(=O)CNS(=O)(=O)c1ccc(F)cc1)NCC1CCCO1 (stereo not given),-5.6%,>57
COc1cccc(-c2nn(C)c3sc(C(=O)NCc4ccc5c(c4)OCO5)cc23)c1,?,>57
Cn1c(SCC(=O)NC2CCCCC2)nnc1-c1cc2cc(Cl)ccc2o1,3.1%,>57
O=C(NCCCN1CCOCC1)c1ccc(Br)s1,5.3%,>57
COC(=O)/C=C\CCc1coc(/C=C\CNC(=O)OC)n1,-1.1%[8 µM],nt
CCOC(=O)C1CCN(CCC(=O)Nc2cccc(Cl)c2)CC1,10µM*,>57
COc1ccccc1-c1nc(C#N)c(N2CCc3ccccc3C2)o1,-31.5%,>57
Fc1ccc2nc3[nH]c4ccccc4c3nc2c1,-6.5%,>57
COc1ccc(N2C(=O)CCC(C(=O)N3CCOCC3)C2c2ccc(F)cc2)cc1 (stereo not given),-2.6%,>57
O=S1(=O)C=C(Sc2nc3cc(Cl)ccc3o2)c2ccccc21,?,?
CCOC(=O)COn1c2c(c3c4no[n+]([O-])c4ccc31)CCCC2,nt,>57
Cc1cc(C)c2c(n1)nn1c(C3CC3)cc(C(F)(F)F)nc21,22.2%,>57
O=C(NC1CC2CCCC(C1)N2C1CC1)NC12CC3CC(CC(C3)C1)C2 (stereo not given),-13.6%,>57
CCOC(=O)CN1C(=O)COc2ccc(C(C)(C)C)cc21,-2.4%,>57
O=c1[nH]c(=O)n([C@H]2C[C@H](O)[C@H](CO)O2)cc1Br,-9.5%,>57
COc1ccc(-c2csc3ncnc(NCCN4CCOCC4)c23)cc1,-9.8%,>57
CCOC(=O)c1ccccc1NC1c2ccccc2C(=O)N1c1ccc(C)cn1 (stereo not given),?,>57
c1ccc(C2=NP(N3CCOCC3)(N3CCOCC3)=NC(N3CCOCC3)=N2)cc1,2.2%,>57
CC(C)NC(=O)N1CC2(CCN(C(=O)c3ccncc3)CC2)C1,1.8%,>57
O=C(O)[C@H]1CN(CCCP(=O)(O)O)CCN1,-4.0%&-1.4%&-4.0%,>57&>57&>57
CCN(CC)c1nc2n(c(=S)n1)CCS2,-11.9%,>57
CCCCn1c(-c2ccccc2)nnc1-c1ccccc1,-13.9%,>57
CC(=O)OC1c2ccccc2C(=O)N1c1ccccc1C (stereo not given),-9.2%,>57
Cc1nc2ccc(S(=O)(=O)N(C)CC(=O)NCc3ccc4c(c3)OCO4)cc2s1,-12.3%,>57
OCC1OC(c2ccc3c(c2)OCO3)C=CC1Oc1ccc(C2CCCC2)cc1 (stereo not given),-14.1%[8 µM],nt
CCOC(=O)c1c(C)[nH]c(C(=O)COC(=O)CCC(=O)c2ccc3c(c2)OCCO3)c1C,?,>57
CCN(CC)CCOc1c(Br)ccc2c1sc1nc3n(c(=O)c12)CCC3,7.94µM*,nt
CCOC(=O)Cc1csc(NC(=O)CSc2ncnc3c2cnn3-c2ccccc2Cl)n1,?,>57
COC(=O)CN1C(=O)C(O)(CC(=O)c2ccccc2)c2ccccc21 (stereo not given),3.9%,nt
Nc1ccc(OCc2ccccc2)cc1,-5.5%,>57
C=CCOC(=O)C1=C(C)Nc2ncnn2C1c1cc(Br)ccc1F (stereo not given),10.0%,>57
Cc1nc(N2CCN(c3ccccc3)CC2)nc2c1C(=O)CC(C)C2 (stereo not given),-4.7%,>57
N#CC1=C(N)C(C#N)(C#N)[C@H](c2c(F)cccc2F)[C@H]2CC3(CC=C12)OCCO3,?,>57
CC1=C(C(=O)OCC2CCCO2)C(c2ccc(O)cc2)NC(=O)N1 (stereo not given),-0.4%,>57
CC1=C(C(=O)Nc2cccnc2)C(c2ccc(C(C)C)cc2)n2ncnc2N1 (stereo not given),8.4%,>57
COc1ccc(Oc2ncc3nc(-c4cccs4)c(=O)n(C)c3n2)cc1,?,>57
CC(=O)Nc1ccc(NC(=O)CN(c2ccccc2Cl)S(C)(=O)=O)cc1,-12.1%,>57
Cc1cc(S(=O)(=O)N2CCC(NC(=O)C34CC5CC(CC(C5)C3)C4)CC2)ccc1-n1cnnn1,5.5%,>57
CCCCC(=O)Nc1ccc(C(=O)NCC(=O)OC)cc1,-0.9%,>57
O=C(c1ccco1)N1CCN(C(=O)C2CCN(S(=O)(=O)c3cccs3)CC2)CC1,8.0%,>57
CCOC(=O)c1nn(-c2ccc(OC)cc2)c(=O)c2c(N)scc12,2.7%,>57
Cc1ccc(S(=O)(=O)N(C)Cc2nc(-c3ccncc3)no2)cc1,-4.8%,>57
CCOC(=O)c1ccc(NC(=O)CSc2nc(C)cc(=O)[nH]2)cc1,-0.8%,nt
CCOc1ccc(N2CC(C(=O)Nc3ccccc3F)CC2=O)cc1 (stereo not given),-20.4%,>57
O=c1oc2ccccc2n1CCc1ccccc1,-4.3%,>57
CC1CN=C(N(C(=O)Nc2ccccc2)c2ccc(S(=O)(=O)N3CCOCC3)cc2)S1 (stereo not given),?,>57
CCOC(=O)N1CCN(CCC(=O)c2ccc(Cl)cc2)CC1,?,>57
Cc1ccc(S(=O)(=O)N2CCOCC2)c(C)c1-n1cnnn1,?,>57
CCOC(=O)c1ccc2c(c1)NC(=O)C(N1CCN(c3ccc(OC)cc3)CC1)S2 (stereo not given),-8.6%,>57

# Remaining list, next part.
molecule,LT uptake inh,SmPrx2 inh
CCc1ccc(N2CC34C=CC(O3)C(C(=O)OC(C)C)C4C2=O)cc1 (stereo not given),17.5%,>57
OCCNc1nc(N2CCN(Cc3ccccc3)CC2)nc2ccccc12,?,>57
OC1(Cc2ccn[nH]2)CCCCC1,nt,>57
CN(C)C=Nc1ncc2c([nH]c3ccccc32)c1C#N,4.7%,>57
COc1ccc(NS(=O)(=O)c2cccc(-c3nnc4n3CCCCC4)c2)cc1,?,>57
O=C(NCc1ccc(F)cc1)c1ccc(CS(=O)(=O)Cc2ccc(F)cc2)o1,?,>57
CCOc1cc(N2CCOCC2)c(OCC)cc1NC(=O)CCC1CCCC1,1.5%,>57
CN1CCN(C(=O)c2ccc3c(=O)n(CCc4ccccc4)c(=S)[nH]c3c2)CC1,-16.4%,>57
CCOc1ccccc1N(CC(=O)Nc1ccccc1C(=O)OC)S(C)(=O)=O,?,nt
COc1ccc(S(=O)(=O)N(C)CC(=O)Nc2ccccc2C(F)(F)F)cc1,-10.4%,>57
Cn1c(CN2CCCCC2)nc2cc(NC(=O)c3ccc(F)cc3)ccc21,0.3%,>57
CCOC(=O)N1CCC(NC(=O)CCC(=O)c2ccccc2)CC1,-7.7%,>57
CCc1nn(-c2cc(Cl)ccc2OC)c2c1C(=O)CCC2,2.4%,>57
C=CCn1c(=O)c(C(=O)NCCc2ccccc2)c(O)c2ccccc21,?,>57
CCOC(=O)C1=C(N)OC2=C(C(=O)CCC2)C1c1cccnc1 (stereo not given),5.3%,>57
CCCN(c1ccc(C(C)C)cc1)S(=O)(=O)c1c(C)noc1C,-20.3%,>57
COc1ccc(B(O)O)cc1,0.3%,nt
O=c1ccnc(SCc2ccc(Cl)cc2)[nH]1,-6.4%[8 µM],>57
Cc1noc(C)c1CSc1cc(C)c2ccccc2n1,-15.9%,>57
CCOC(=O)c1nnn(-c2nonc2N)c1-c1ccccc1,11.0%,>57
O=C(CCCc1nc(-c2ccccc2)no1)Nc1cccnc1,-15.1%,>57
COc1ccc(OC)c(NS(=O)(=O)c2ccc3c(c2)CCC(=O)N3)c1,-16.6%,>57
COc1ccc(-n2c(Cc3cccn3C)nnc2SCC(=O)N2CCC(C)CC2)cc1,15.2%,>57
CCCOc1ccc(C(CC(=O)O)NS(=O)(=O)c2ccc(NC(C)=O)cc2)cc1 (stereo not given),1.9%,>57
COc1ccc(NC(=O)C2CCN(c3cc(C)nc(-c4ccccc4)n3)CC2)cc1,-11.5%,>57
CCCCC(O)(C(NC=O)C(=O)OC)C(F)(F)F (stereo not given),7.0%,>57
CN(CCc1ccccn1)Cc1ccc(Cl)cc1Cl,-5.5%,>57
CCCCC(CC)COP(=O)(OCC(CC)CCCC)OCC(CC)CCCC (stereo not given),?,nt
Cc1c(Cl)cccc1N1CC(C(=O)Nc2nccs2)CC1=O (stereo not given),-16.1%,>57
